Ab BasE inh: blocks the Acinetobacter baumannii siderophore enzyme BasE; purified BasE, fluorescence polarization binding displacement; inhibition, % (concentration not given with the values); actives 0.1% (n = 84,000);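 active means both replicates above 25% with normal brightness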;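 further: 0% = negative plate control signal and 100% = positive plate control signal; stock transfer was 100 nL into about 30 µL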
LANA-nucl inh: LANA-nucleosome interaction inhibition | FITC-LANA1-23 / chicken nucleosome fluorescence polarization; hits give low values | z-score (concentration not given with the values) | actives 0.3% (n = 51,000) | AID 720717;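 active means both repeat wells score below -2 in polarization z-score versus plate sample wells, excluding overly bright wells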;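 further: 100 nL library stock added to about 30 µL; numbers are from one replicate; some results filed as inactive read as strong as hits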
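Assay system: FITC-LANA peptide and chicken nucleosomes; input: 240 nM purified chicken nucleosomes (480 nM peptide binding sites), final; also added: 50 nM FITC-LANA1-23 probe; medium: TEN-BT buffer, pH 7.5; doses: pin-transferred compound, 100 nL; times: 10–45 min, room temperature; technique: fluorescence polarization; replication: duplicates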
The depositor's hits bear a star; · = not tested or not shown; & = joins results of further samples.

smiles	Ab BasE inh	LANA-nucl inh
S=C(NCc1ccco1)Nc1ccc(N2CCOCC2)c2nonc12	-1.6	-0.29
Cc1nn(CC(N)=S)c(C)c1Br	-1.1	·
Cc1cc(NC(=O)C2CC(=O)N(Cc3ccccc3)C2)no1 (stereo unspecified)	-0.7	0.04
CN(C1CCCCC1)S(=O)(=O)c1ccc(S(=O)(=O)N(Cc2ccccn2)Cc2ccco2)cc1	2.4	0.78
COc1cc(/C=N/NC(=O)c2ccc(O)cc2)ccc1OCC(=O)N1CC(C)OC(C)C1 (stereo unspecified)	3.1	·
NNC(=O)COc1ccc(Cl)cc1Cl	-1.3	-0.4
CCN(CC(=O)Nc1cc(Cl)ccc1C)C(=O)CC1CCCC1	0.1	·
CC(C)(C)/C(O)=C(/C#N)c1nc2ccccc2[nH]1	-0.1	·
Cc1ccc(S(=O)(=O)NCC(=O)OC2CCOC2=O)cc1 (stereo unspecified)	-0.9	·
CC(C)(C)CC[n+]1ccc(C(N)=O)cc1	2.7	·
CN(C)C(=O)C(OC(=O)c1ccc(Cl)c(N)c1)c1ccccc1 (stereo unspecified)	1.5	·
CC1CN(c2oc(COc3ccc(Cl)cc3Cl)nc2C#N)CC(C)O1 (stereo unspecified)	-1.1	0.075
COCCCC/C(=N\OCCN)c1ccc(C(F)(F)F)cc1	-2.1	-0.07
Cc1nnc(NCc2ccco2)s1	4.6	0.55
CCOC(=O)C(C)Sc1nnc(NC(=O)Nc2ccc(F)cc2)s1 (stereo unspecified)	-11	-1.3
COc1cc(-c2nc3ccccc3nc2-c2ccc(O)c(OC)c2)ccc1O	3.1	-0.51
CC1=C(C(=O)c2ccccc2)C(c2ccc(C)cc2)NC(=O)N1 (stereo unspecified)	1.9	·
NNC(=S)NCCc1ccc(Cl)cc1	-1.6	·
CC1COC(=O)C(NNc2ccc(Cl)c(Cl)c2)=N1 (stereo unspecified)	-0.7	-0.92
CCC(C)OC(=O)COc1ccc2c(=O)c(-c3ccc(OC)c(OC)c3)c(C(F)(F)F)oc2c1 (stereo unspecified)	1.9	·
O=C(c1ccccn1)C1CC1c1ccccc1 (stereo unspecified)	·	0.04
N#CCCSc1nnc(-c2ccncc2)n1Cc1ccccc1	-0.2	0.35
COC(=O)Cn1c(O)c(N=NC(=O)c2ccc3c(c2)OCO3)c2ccccc21	-1.6	0.14
O=c1cc(CSc2nnc(-c3cccnc3)n2-c2ccccc2F)nc2sccn12	4.6	·
O=C(Nc1ccc(OC(F)(F)F)cc1)Nc1cc(C(F)(F)F)ccn1	-1.4	-0.21
Cc1oc(-c2ccc(Cl)cc2)cc1C(=O)/C(C#N)=C/Nc1ccccc1	-0.7	0.9
Cc1ccccc1NCCC(=O)Nc1ccc(Cl)cc1	3.8	·
COc1cc2c(cc1OC)C(C)N(C(=O)CN1CCOCC1)CC2 (stereo unspecified)	0.1	0.35
C=CCN1C(=O)S/C(=C/c2cn(CC(=O)O)c3ccccc23)C1=O	0.8	0.37
COC(=O)C1=C(N)OC2=C(C(=O)CC(C)(C)C2)C1c1ccc(C)cc1 (stereo unspecified)	2.0	0.38
COc1cccc(C2=NC(=C(C)C)C(=O)O2)c1	1.9	-3.3
CC(C(=O)O)N1C(=O)c2cccnc2Sc2ccccc21 (stereo unspecified)	3.7	0.11
c1ccc2[nH]c(NCCCN3CCOCC3)nc2c1	-0.9	-0.88
CCn1c2ccccc2c2cc(NC(=O)COc3ccc(OC)cc3)ccc21	2.2	·
Cc1oc(-c2ccc(Cl)cc2)cc1C(=O)N1CCC(O)(c2ccc(Cl)cc2)CC1	1.3	·
O=C1Nc2ccccc2N(c2ccccc2)N1	11	-3.5*
CN1CCN(S(=O)(=O)c2cccc3nsnc23)CC1	-1.0	0.25
Cc1nc(C)c(Oc2ccc(Cl)cc2Cl)c(=O)[nH]1	2.5	·
COc1cc(-c2ncnn2-c2sc3c(c2C#N)CCCCC3)cc(OC)c1OC	-0.1	·
O=C(OCc1cn2cc(Cl)ccc2n1)c1ccc(N2CCCC2=O)cc1	1.2	·
CCOC(=O)N1CCN(C(=O)c2cc3c(=O)n(CC)c4ccccc4c3s2)CC1	-4.0	1.1
Oc1ccccc1C1=NCCNC(C(F)(F)C(F)F)=C1	-4.7	2.2
N/C(CC(=O)Nc1cc(C(F)(F)F)ccc1Cl)=N\O	0.6	1.5
S=c1[nH]nc(NC2CC2)s1	-0.3	·
COc1ccc(NC2CC(=O)N(C(C)C)C2=O)cc1 (stereo unspecified)	-0.9	0.72
NC(=O)Cc1cn2ccccc2n1	0.3	·
Cc1cccc(C)c1NC(=O)Nc1cc2sccc2n1C	2.2	-0.058
S=C(NCCCN1CCOCC1)N1CCOCC1	4.0	-1.3
CCCNC(=O)c1cccc(COCC(F)(F)C(F)F)c1	1.4	-0.17
CSc1nc2sc3c(c2c(=O)n1CC(C)C)CCC3	1.6	·

Structures listed above printed as active in LANA-nucl inh:
SMILES | LANA-nucl inh
O=C1Nc2ccccc2N(c2ccccc2)N1 | -3.5*

Following part
smiles	Ab BasE inh	LANA-nucl inh
COc1ccccc1-c1nnc(SC)n1CCc1ccccc1	1.3	·
FC(F)(F)c1cccc(Sc2ccc3nnc(Cl)n3n2)c1	·	-1.1
Cc1nc2ccc(O)cc2o1	1.1	-0.67
O=C1NCCCC1c1n[nH]c(=S)n1-c1ccccc1Cl (stereo unspecified)	-0.8	·
O=C(N(c1ccccc1)c1ccc(F)cc1)C12CC3CC(CC(C3)C1)C2	1.7	·
COC(=O)N/N=C/c1cccc(OC)c1O	0.5	·
CCOc1ccc(-n2c(=O)c3ccc(Cl)cc3n3c(Cn4nnc(-c5ccccc5)n4)nnc23)cc1	2.3	·
Brc1ccc(-n2cc3cnnc(-c4ccccc4)c3n2)cc1	-0.5	·
CC1CCC/C(=N/NC(=O)Cn2nnc3ccccc32)C1 (stereo unspecified)	-0.2	·
C1COCCOCCOCCN1	0.1	-0.032
CCCn1c(C)cc(/C=C(\C#N)C(=O)OCc2nc(N)nc(Nc3ccccc3C)n2)c1C	-3.3	·
COC(=O)c1ccc(-n2c(C)cc(C(=O)CN3C(=O)CN(C)C3=O)c2C)cc1	-1.5	·
Cc1csc(NC(=O)c2cccc(S(=O)(=O)N(C)C)c2)n1	-2.7	·
CCN(CC)CCOC(=O)C1(c2ccc([N+](=O)[O-])cc2)CCCC1	1.2	-0.26
CC(=O)OC(OC(C)=O)c1ccc(S(N)(=O)=O)cc1	0.3	-0.95
C=C(C)C1Cc2cc(/C=C/C(=O)O)c(O)cc2O1 (stereo unspecified)	16	0.36
COC(=O)c1ccc2c(=O)n(CC(C)O)c(=S)[nH]c2c1 (stereo unspecified)	1.0	·
N#CCCn1cc(C(=O)Nc2nccs2)c(-c2cccs2)n1	-15	0.18
Cc1c(C(=O)NCc2cccs2)oc2ccc3c(c12)C(=O)CC1(CCCC1)O3	0.2	-0.52
O=C1CSC2=NC3=C(CCc4ccccc43)C(c3ccccc3)N12 (stereo unspecified)	-0.7	-0.026
Cc1cnc(NC(=O)COc2ccc3ccccc3c2)s1	0.1	·
COC(=O)C1c2ccccc2Oc2ccccc21	2.0	·
O=C1c2ccccc2C(=O)N1c1ccc(S(=O)(=O)N2CCOCC2)cc1	-0.3	-0.48
Cc1cc(=O)[nH]c(-c2ccccc2)n1	·	-0.9
S=C(NCc1ccccc1)N1CCc2ccccc21	1.6	·

7 consecutive entries out of the list so far, for reference:
smiles	Ab BasE inh	LANA-nucl inh
Cc1c(C(=O)NCc2cccs2)oc2ccc3c(c12)C(=O)CC1(CCCC1)O3	0.2	-0.52
O=C1CSC2=NC3=C(CCc4ccccc43)C(c3ccccc3)N12 (stereo unspecified)	-0.7	-0.026
Cc1cnc(NC(=O)COc2ccc3ccccc3c2)s1	0.1	·
COC(=O)C1c2ccccc2Oc2ccccc21	2.0	·
O=C1c2ccccc2C(=O)N1c1ccc(S(=O)(=O)N2CCOCC2)cc1	-0.3	-0.48
Cc1cc(=O)[nH]c(-c2ccccc2)n1	·	-0.9
S=C(NCc1ccccc1)N1CCc2ccccc21	1.6	·

(list continues)
smiles	Ab BasE inh	LANA-nucl inh
CCCCC1(C)OC(=O)C(=Cc2ccc(SC)cc2)C(=O)O1 (stereo unspecified)	2.3	·
COc1ccc2sc(N)nc2c1	3.2	-0.31
O=C(O)c1ccc(Nc2ncnc3ccc(Br)cc23)cc1	-0.6	0.49
CCOc1ccc(Cc2nc(C)c(CC(N)=O)c(=O)[nH]2)cc1	-1.4	-0.57
O=C(NCc1ccc2c(c1)OCO2)C1CCCN(c2nc3ccsc3c(=O)s2)C1 (stereo unspecified)	0.6	-0.33
CC(C)COC(=O)C(C)Oc1ccc2c3c(c(=O)oc2c1)CCC3 (stereo unspecified)	0.7	·
O=C(N/N=C1/SCC(=O)N1Cc1ccco1)c1ccccc1F	0.4	-0.58
O=S(=O)(Cc1ccc(Cl)cc1)NCCN1CCOCC1	2.1	0.31
CCn1c(=O)c(=O)[nH]c2cc(C(=O)NCc3cccs3)ccc21	-2.8	·
O=C(Cc1ccc(F)cc1)Nc1cc(=O)[nH]c(=O)[nH]1	1.0	-2.2*
Cc1cccc(C(=O)NC(Cc2ccccc2)C(N)=O)c1 (stereo unspecified)	2.8	0.99
CC(C)OCC(O)CN (stereo unspecified)	0.0	1.9
CCCOn1nnnc1-c1ccccc1	1.2	-0.77
Cc1nccn1S(=O)(=O)c1ccc(Cl)cc1Cl	-2.9	-0.036
COc1ccc(C2/C(=C(/O)c3ccccc3)C(=O)C(=O)N2CC(OC)OC)c(OC)c1 (stereo unspecified)	-2.8	0.77
CCOc1ncccc1C(=O)OC(C)C(=O)Nc1ccccc1 (stereo unspecified)	0.2	·
N#CC(C(=O)Nc1cccc(C(F)(F)F)c1)C(=S)Nc1ccccc1Cl (stereo unspecified)	2.1	·
Cc1ccc(CNC(=O)Cn2ccc(C(F)(F)F)n2)cc1	1.7	·
CCN1CCN(CCN=C2NS(=O)(=O)C(c3ccc(F)cc3)=C2C)CC1	-4.3	·
N/C(=N\O)c1ncc(C(F)(F)F)cc1Cl	·	0.41
CCOc1ccc(C2=C(CN(C)C)C(c3ccc(F)cc3)c3ccccc3O2)cc1 (stereo unspecified)	-0.1	·
CCNc1nc(NCC)n2c(SCC3CN(Cc4ccccc4)CCO3)nnc2n1 (stereo unspecified)	0.1	·
COc1ccccc1C(=O)Nc1nc2ccccc2s1	-0.7	-0.4
CCOC(=O)c1c[nH]c(=S)[nH]c1=O	-2.9	·
CC(/C=N/n1c(-c2cccnc2)n[nH]c1=S)=C\c1ccccc1	3.3	0.41
CC1(C)C(=O)N(c2cccc(Cl)c2)C(=O)C1(C)C	2.9	-1.2
S=c1c2c(nc3nc[nH]n13)CCC2	2.2	0.18
CCCCCCC1/C(=N/O)CCC1C(=O)OC (stereo unspecified)	4.3	0.13
CCN1CCC[C@H]1CNC(=O)c1c(O)c(Cl)cc(Cl)c1OC	·	-0.35&0.44
CC(=O)NC1C(Oc2ccccc2C)OC2COC(C)(C)OC2C1O (stereo unspecified)	2.6	-0.63
Cc1ccc(C(=O)Nc2ccc(S(=O)(=O)O)c3cc(S(=O)(=O)O)cc(S(=O)(=O)O)c23)cc1NC(=O)c1cccc(NC(=O)Nc2cccc(C(=O)Nc3cc(C(=O)Nc4ccc(S(=O)(=O)O)c5cc(S(=O)(=O)O)cc(S(=O)(=O)O)c45)ccc3C)c2)c1	·	-0.49&-0.15
CCCCC(=O)NC1(C(F)(F)F)C(=O)N(Cc2ccco2)C(C)=C1C(=O)OC (stereo unspecified)	2.2	0.79
COc1ccc(Cc2nc3ccccc3n2C)cc1	-4.9	-0.75
CC(C)(CN)N1CCOCC1	0.7	·
Cc1ccc(CNC(=O)c2ccc(CS(=O)Cc3ccc(C)cc3)o2)cc1 (stereo unspecified)	0.1	-0.57
CCC(CC)NC(=O)c1ccc2ncsc2c1	19	·
CCN(C(=O)CSc1nnc(C)o1)c1cccc2ccccc12	1.4	·
CCCCCn1c(CO)nc2ccccc21	1.3	·
COC(=O)c1ccccc1S(=O)(=O)N1CCC(C(=O)OCC(=O)NC2CCCCC2C)CC1 (stereo unspecified)	1.2	·
CCN(CC(=O)Nc1ccccc1C(F)(F)F)CC(=O)NC1CC1	0.3	·
O=C(NCc1ccco1)c1ccc(Cl)c(NS(=O)(=O)c2ccc(F)cc2)c1	1.5	·
Cc1[nH]n(-c2ccccc2)c(=O)c1/C=N/Nc1nnc(C)c(=O)[nH]1	0.5	0.74
O=C(CN1Cc2ccccc2C1=O)Nc1ccc(Br)cc1F	-2.3	1.6
CC(C)(C)/C=C(\C#N)C(C)(C)C	-2.7	1.4
Cc1cn2cc(-c3cccc(Cl)c3)nc2s1	0.6	0.85
O=C(NCC1COc2ccccc2O1)c1cc2ccccc2o1 (stereo unspecified)	-0.5	·
CN1CCN(CCCNC(=O)Cn2ncc3c4ccccc4n(C)c3c2=O)CC1	-1.6	0.41

This is a subset; rates above refer to the full screens.
